FGF22 binding: shifts melting point of recombinant human FGF22; AID 651658; recombinant FGF22 thermal shift, SYPRO orange fluorescence; percent of sucrose octasulfate shift, DMSO zero; calls only at 9.99 µM; Q9HCT0; actives 1.5% (n = 340,000);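 active = melting point raised past a set limit in the mean and every replicate; three in four hits are not shown here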
Target sequence (Q9HCT0 whole entry, looked up): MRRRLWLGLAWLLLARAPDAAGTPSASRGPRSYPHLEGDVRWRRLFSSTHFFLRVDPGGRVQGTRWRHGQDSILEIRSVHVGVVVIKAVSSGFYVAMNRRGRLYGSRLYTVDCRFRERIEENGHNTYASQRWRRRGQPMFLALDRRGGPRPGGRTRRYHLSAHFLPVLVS
Calls only; i = inactive.

molecule | FGF22 binding
COc1ccc(NC(=O)Nc2ccc3c(c2)C(=O)N([C@@H](C)CO)C[C@H](C)[C@H](CN(C)C)O3)cc1 | i
CC=Cc1ccc2n(c1=O)C[C@H]1[C@H](CO)[C@@H](C(=O)NCC3CC3)[C@@H]2N1CCC(F)(F)F (mixture of isomers) | i
CCc1csc(N2[C@H](CO)[C@H](c3ccccc3)[C@@H]2CNC)n1 | i
O=S(=O)(c1ccc(F)cc1)N1CCCCN2[C@H](C1)[C@@H](c1ccc(C#CC3CC3)cc1)[C@@H]2CO | i
C[C@@H](NC(=O)C[C@H]1CC[C@@H](NC(=O)C2CCOCC2)[C@@H](CO)O1)c1ccccc1 | i
Cc1cccc(S(=O)(=O)N2C[C@@H]3[C@H](c4ccccc42)[C@H](CO)N3Cc2ccccn2)c1 | i
CCC(=O)N(C)C[C@H]1Oc2cc(C#CC(C)C)ccc2S(=O)(=O)N([C@@H](C)CO)C[C@H]1C | i
CCCC(=O)Nc1ccc2c(c1)C(=O)N(C)[C@H]1CC[C@H](CC(=O)NCc3cccc(F)c3)O[C@H]1CO2 | i
COCCNC(=O)C[C@@H]1C[C@H]2c3cc(NC(=O)CN(C)C)ccc3O[C@H]2[C@@H](CO)O1 | i
C[C@@H]1CN([C@H](C)CO)C(=O)c2cc(NC(=O)CCN3CCOCC3)ccc2O[C@@H]1CN(C)S(=O)(=O)c1ccc(Cl)cc1 | i
COc1cccc(-c2cn(CC[C@H]3CC[C@H](NC(C)=O)[C@H](CO)O3)nn2)c1 | i
O=C(NC1Cc2ccccc2C1)[C@H]1[C@H](CO)[C@H]2Cn3c(ccc(C4=CCCC4)c3=O)[C@@H]1N2CC1CC1 | i
CN1C(=O)c2cc(NC(=O)C3CCCCC3)ccc2OC[C@@H]2O[C@H](CC(=O)NC3CCCC3)CC[C@@H]21 | i
C[C@@H]1CN([C@H](C)CO)C(=O)c2ccccc2-c2ccccc2CO[C@@H]1CN(C)C(=O)Nc1ccccc1 | i
COc1ccc(NC(=O)N(C)C[C@H]2Oc3ccc(NS(=O)(=O)c4ccc(OC)cc4)cc3CC(=O)N([C@@H](C)CO)C[C@@H]2C)cc1 | i
O=C1N[C@@H](Cc2ccccc2)COCc2cn(nn2)CC[C@@H]1Cc1ccccc1 | i
O=C(C[C@@H]1CC[C@H](NC(=O)c2ccccn2)[C@H](CO)O1)NCc1cc(F)cc(F)c1 | i
C[C@H](CO)N1C[C@H](C)[C@H](CN(C)C(=O)Cc2ccccn2)Oc2ncc(-c3ccccc3)cc2C1=O | i
O=C(C[C@H]1CC[C@@H]2[C@H](COC[C@H](O)CN2C(=O)c2ccncc2)O1)NC1Cc2ccccc2C1 | i
CO[C@@H]1CN(C)C(=O)c2ccc(NC(=O)c3cccc(F)c3)cc2OC[C@@H](C)N(C(C)=O)C[C@@H]1C | i
O=C(CC(F)(F)F)N1C[C@H]2[C@@H](c3ccccc31)[C@H](CO)N2C(=O)Cc1cccnc1 | i
O=C(C1CCCC1)N1CCCCN2[C@H](CO)[C@@H](c3ccc(C#CC4CC4)cc3)[C@H]2C1 | i
O=C(C[C@@H]1CC[C@H](NC(=O)C2CCOCC2)[C@@H](CO)O1)Nc1nccs1 | i
CCC(=O)Nc1ccc2c(c1)OC[C@H](C)N(C(=O)CN(C)C)C[C@H](C)[C@@H](OC)CN(C)C2=O | i
C[C@@H]1CN([C@@H](C)CO)C(=O)Cc2cc(NC(=O)Nc3ccc(C(F)(F)F)cc3)ccc2O[C@@H]1CN(C)Cc1ccc(Oc2ccccc2)cc1 | i
CNC[C@@H]1Oc2c(NC(=O)c3ccc(-c4nccs4)cc3)cccc2C(=O)N([C@@H](C)CO)C[C@H]1C | i
C[C@@H]1ON(C)[C@H]2C[C@H]3c4[nH]c5c(-c6ccc7c(c6)OCO7)cccc5c4CCN3C(=O)[C@@H]12 | i
CC(=O)N(C)C[C@@H]1Oc2cc(-c3cccc(F)c3)ccc2S(=O)(=O)N([C@@H](C)CO)C[C@H]1C | i
Cc1noc(C)c1NC(=O)N(C)C[C@@H]1Oc2ccc(NS(=O)(=O)c3ccc(F)cc3)cc2CC(=O)N([C@H](C)CO)C[C@H]1C | i
C[C@@H]1CN([C@@H](C)CO)C(=O)Cc2cc(NS(=O)(=O)c3ccccc3)ccc2O[C@H]1CN(C)Cc1ccc2c(c1)OCO2 | i
C[C@@H]1CN([C@H](C)CO)C(=O)c2cc(NC(=O)Nc3ccccc3)ccc2O[C@@H]1CN(C)C(=O)Nc1cccc2ccccc12 | i
O=C(CN1CCOCC1)NCC[C@@H]1CC[C@@H](NC(=O)Nc2ccc(Cl)cc2)[C@@H](CO)O1 | i
C=CCCC1CN(Cc2ccc(OC)cc2)S(=O)(=O)c2c(cccc2N2CCCC2)O1 (stereo not drawn) | i
N#Cc1cccc(-c2ccc(C3[C@@H]4CN(Cc5ccccc5)C[C@H]3N4)cc2)c1 (stereo partly drawn) | i
C[C@H]1CN([C@@H](C)CO)C(=O)c2cc(NC(=O)Nc3ccc(C(F)(F)F)cc3)ccc2O[C@@H]1CN(C)C(=O)Nc1ccc(F)cc1 | i
O=C(NC[C@H]1N[C@H](CO)[C@H]1c1ccc(-c2ccccc2F)cc1)c1ccccn1 | i
CCCN(C)C[C@H]1Oc2cc(-c3ccccc3OC)ccc2S(=O)(=O)N([C@@H](C)CO)C[C@H]1C | i
O=C(NC[C@@H]1N[C@@H](CO)[C@@H]1c1ccccc1)c1ccccc1F | i
CO[C@H]1CN(C)C(=O)c2ccc(NC(=O)c3ccc(F)cc3)cc2OC[C@H](C)N(C(=O)c2ccc(F)cc2)C[C@H]1C | i
CCCC#Cc1ccc2c(c1)O[C@@H](CN(C)C(=O)Nc1ccccc1F)[C@H](C)CN([C@H](C)CO)S2(=O)=O | i
O=C(C[C@@H]1CC[C@@H]2[C@H](COC[C@H](O)CN2Cc2cccc(F)c2)O1)NCC1CCCCC1 | i
CO[C@H]1CN(C)C(=O)c2cc(NC(=O)C3CC3)ccc2OC[C@H](C)N(Cc2nccs2)C[C@H]1C | i
CN(C)C(=O)c1ccc(-c2ccc([C@@H]3[C@@H](CO)N4CCCCN(S(C)(=O)=O)C[C@H]34)cc2)cc1 | i
CC(C)CC#Cc1ccc([C@@H]2[C@@H](CO)N3CCCCN(C(=O)NC4CCCC4)C[C@H]23)cc1 | i
C[C@@H]1CN([C@@H](C)CO)C(=O)c2cccc(NC(=O)NC3CCCCC3)c2O[C@@H]1CN(C)Cc1ccc(C(F)(F)F)cc1 | i
CN1C(=O)c2cc(NC(=O)C3CCCC3)ccc2OC[C@@H]2O[C@H](CC(=O)NCC3CC3)CC[C@H]21 | i
CO[C@H]1CN(C)C(=O)c2ccc(NC(=O)c3ccccc3F)cc2OC[C@@H](C)N(C(C)=O)C[C@H]1C | i
CC(C)NC(=O)Nc1ccc2c(c1)C(=O)N([C@@H](C)CO)C[C@@H](C)[C@H](CN(C)Cc1ccccc1)O2 | i
Cc1cccc(C=NNc2cc(C)c3cccc(C)c3n2)n1 | i
C[C@@H]1CCCCO[C@@H](CN(C)CC2CC2)[C@H](C)CN([C@@H](C)CO)C(=O)c2cc(NC(=O)Nc3cccc4ccccc34)ccc2O1 | i
CCCC(=O)N1CCC2(CC1)CN(C(=O)CN1CCOCC1)[C@H](CO)c1c2c2ccc(OC)cc2n1C | i
C[C@H]1CN([C@@H](C)CO)C(=O)c2cc(NC(=O)Nc3ccccc3)ccc2O[C@@H]1CN(C)Cc1ccc(Oc2ccccc2)cc1 | i
C[C@H]1CN([C@@H](C)CO)S(=O)(=O)c2ccc(C#CCC3CCCC3)cc2O[C@@H]1CN(C)C(=O)c1cnccn1 | i
COc1ccc(S(=O)(=O)N(C)C[C@@H]2Oc3ccc(NC(=O)NC4CCCCC4)cc3CC(=O)N([C@H](C)CO)C[C@@H]2C)cc1 | i
CC(C)CC#Cc1cnc2c(c1)C(=O)N([C@H](C)CO)C[C@H](C)[C@H](CN(C)S(C)(=O)=O)O2 | i
COc1ccccc1S(=O)(=O)N1C[C@@H]2N[C@H](C1)C2c1ccc(-c2ccccc2C)cc1 (stereo partly drawn) | i
C[C@@H]1CN([C@@H](C)CO)C(=O)Cc2cc(NC(=O)Nc3ccc(F)cc3)ccc2O[C@H]1CN(C)C(=O)Nc1ccc(C(F)(F)F)cc1 | i
C[C@@H]1CN([C@H](C)CO)C(=O)c2cccc(NS(=O)(=O)c3cn(C)cn3)c2O[C@@H]1CN(C)C | i
CCCNC(=O)N(C)C[C@H]1Oc2ncc(C#CC3(O)CCCC3)cc2C(=O)N([C@H](C)CO)C[C@H]1C | i
CN1CCN(C(=O)C[C@H]2CC[C@H](NC(=O)Cc3ccccn3)[C@@H](CO)O2)CC1 | i

3 compounds out of the list, sorted by number of heavy atoms, rising:
molecule | FGF22 binding
CO[C@H]1CN(C)C(=O)c2ccc(NC(=O)c3ccccc3F)cc2OC[C@@H](C)N(C(C)=O)C[C@H]1C | i
CCCC(=O)N1CCC2(CC1)CN(C(=O)CN1CCOCC1)[C@H](CO)c1c2c2ccc(OC)cc2n1C | i
COc1ccc(S(=O)(=O)N(C)C[C@@H]2Oc3ccc(NC(=O)NC4CCCCC4)cc3CC(=O)N([C@H](C)CO)C[C@@H]2C)cc1 | i

Laid out differently: entries from further up.
> C[C@H]1CN([C@@H](C)CO)S(=O)(=O)c2ccc(C#CCC3CCCC3)cc2O[C@@H]1CN(C)C(=O)c1cnccn1
  FGF22 binding: i

> COc1ccc(S(=O)(=O)N(C)C[C@@H]2Oc3ccc(NC(=O)NC4CCCCC4)cc3CC(=O)N([C@H](C)CO)C[C@@H]2C)cc1
  FGF22 binding: i

> CC(C)CC#Cc1cnc2c(c1)C(=O)N([C@H](C)CO)C[C@H](C)[C@H](CN(C)S(C)(=O)=O)O2
  FGF22 binding: i

(cont.)
molecule | FGF22 binding
O=C(C[C@H]1CC[C@H]2[C@@H](COC[C@@H](O)CN2C(=O)Nc2ccc(Cl)cc2)O1)N1CCCCC1 | i
O=C(C[C@H]1C[C@@H]2c3cc(NC(=O)Nc4ccccc4F)ccc3O[C@@H]2[C@H](CO)O1)NC1CCCC1 | i
COCC(=O)Nc1ccc2c(c1)[C@@H]1C[C@@H](CC(=O)N[C@@H](C)c3ccccc3)O[C@H](CO)[C@@H]1O2 | i
CO[C@H]1CN(C)C(=O)c2cc(NS(C)(=O)=O)ccc2OC[C@@H](C)N(C(=O)C2CCCC2)C[C@@H]1C | i
C[C@H](CO)N1C[C@H](C)[C@@H](CN(C)C(=O)Nc2ccccc2)OCCCC[C@H](C)Oc2ccc(N(C)C)cc2C1=O | i
CCCN1[C@@H]2Cn3c(ccc(-c4ccccc4)c3=O)[C@H]1[C@@H](C(=O)N1CCCCC1)[C@@H]2CO | i
COc1cccc(NC(=O)C[C@H]2CC[C@H]3[C@@H](COc4ccc(NC(=O)C5CCCCC5)cc4C(=O)N3C)O2)c1 | i
O=C(Nc1ccc2c(c1)[C@@H]1C[C@H](CC(=O)N3CCCCC3)O[C@@H](CO)[C@@H]1O2)c1ccc2c(c1)OCO2 | i
C[C@H](CO)N1C[C@H](C)[C@@H](CN(C)Cc2ccc(Cl)c(Cl)c2)Oc2ccc(NC(=O)Nc3ccc(C(F)(F)F)cc3)cc2C1=O | i
COc1ccc(S(=O)(=O)N(C)C[C@@H]2Oc3ccc(NS(=O)(=O)c4c(C)noc4C)cc3CC(=O)N([C@H](C)CO)C[C@H]2C)cc1 | i
C[C@H]1CN([C@@H](C)CO)C(=O)c2cccc(NC(=O)C3CC3)c2O[C@H]1CN(C)S(=O)(=O)c1cn(C)cn1 | i
Cc1ccc(S(=O)(=O)N(C)C[C@H]2Oc3ccc(N(C)C)cc3CC(=O)N([C@@H](C)CO)C[C@H]2C)cc1 | i
CO[C@@H]1CN(C)C(=O)c2ccc(NC(C)=O)cc2OC[C@@H](C)N(Cc2ccccc2F)C[C@H]1C | i
CO[C@H]1CN(C)C(=O)c2cc(NC(=O)c3ccccc3F)ccc2OC[C@H](C)N(C)C[C@@H]1C | i
C[C@H]1CN([C@@H](C)CO)S(=O)(=O)c2ccc(C3=CCCC3)cc2O[C@@H]1CN(C)C | i
Cc1noc(C)c1NC(=O)N(C)C[C@H]1OCCCC[C@@H](C)Oc2ccc(NC(=O)c3ccncc3)cc2C(=O)N([C@@H](C)CO)C[C@H]1C | i
COc1ccc(NC(=O)N(C)C[C@H]2OCc3ccccc3-c3ccccc3C(=O)N([C@@H](C)CO)C[C@H]2C)c(OC)c1 | i
C[C@@H]1CCCCO[C@H](CN(C)S(C)(=O)=O)[C@@H](C)CN([C@@H](C)CO)C(=O)c2cc(NS(C)(=O)=O)ccc2O1 | i
CN(C)C(=O)[C@@H]1[C@@H](CO)[C@@H]2Cn3c(ccc(C4=CCCC4)c3=O)[C@H]1N2CC1CCCCC1 | i
Cc1ccc(S(=O)(=O)N[C@H]2CC[C@@H](CC(=O)NCc3ccncn3)O[C@H]2CO)cc1 | i
C[C@H](CO)N1C[C@H](C)[C@H](CN(C)S(C)(=O)=O)Oc2ccc(NS(=O)(=O)c3ccccc3)cc2CC1=O | i
CC(C)NC(=O)Nc1ccc2c(c1)CC(=O)N([C@H](C)CO)C[C@H](C)[C@H](CN(C)C(=O)NC(C)C)O2 | i
C[C@H]1CN([C@@H](C)CO)S(=O)(=O)c2ccc(C#CC3CC3)cc2O[C@H]1CN(C)C(=O)C1CC1 | i
COc1ccc(S(=O)(=O)N(C)C[C@H]2Oc3ccc(NC(=O)CCCN(C)C)cc3C(=O)N([C@H](C)CO)C[C@H]2C)cc1 | i
C[C@@H]1CN([C@H](C)CO)S(=O)(=O)c2ccc(C#CC3(O)CCCC3)cc2O[C@H]1CN(C)C(=O)c1ccccc1 | i

Only part of the results is shown, so the mix of outcomes need not match the whole.
